# NOMO-1 viab – STK33 inhibitor candidate reducing NOMO-1 cell viability | NOMO-1 AML viability, CellTiter-Glo luminescence, 72 h | inhibition, % (concentration not given with the values) | 37,000 tested, 7.5% active | AID 2330;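 active means most replicates above 80%; inconclusive means exactly half above 80%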;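 further: wells of about 30 µL received 25 nL stock; 0% = median of vehicle wells and 100% = reference inhibitor level; the first replicate is given; inactives centre near 10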
# An asterisk follows results filed as active; ? = inconclusive.
compound	NOMO-1 viab
C[C@H]1CN([C@@H](C)CO)C(=O)c2cc(NC(=O)Cc3cn(C)c4ccccc34)ccc2O[C@@H]1CN(C)Cc1ccc(C(F)(F)F)cc1	48
C[C@H](CO)N1C[C@H](C)[C@@H](CN(C)Cc2ccc(C(=O)O)cc2)Oc2ccc(NC(=O)Cc3cn(C)c4ccccc34)cc2C1=O	-2
C[C@@H]1CN([C@H](C)CO)C(=O)Cc2cc(NC(=O)C3CC3)ccc2O[C@H]1CN(C)Cc1ccc(Oc2ccccc2)cc1	23
Cc1ccc(S(=O)(=O)N(C)C[C@@H]2Oc3c(NC(=O)NC4CCCCC4)cccc3C(=O)N([C@@H](C)CO)C[C@H]2C)cc1	10
Cc1ccc(S(=O)(=O)Nc2ccc3c(c2)CC(=O)N([C@H](C)CO)C[C@@H](C)[C@@H](CN(C)CC2CC2)O3)cc1	5
CC1(CCOC2OC(CO)C(O)C(O)C2O)CCC2C(=CCC3C(C)(C(=O)O)CCCC23C)C1 (configuration not stated)	14
C[C@@H]1CN([C@H](C)CO)C(=O)c2cc(NC(=O)Nc3ccccc3)ccc2O[C@@H]1CN(C)Cc1ccccc1	-10
C[C@H](CO)N1C[C@H](C)[C@@H](CN(C)C(=O)NC2CCCCC2)Oc2ccc(NC(=O)Nc3ccc(C(F)(F)F)cc3)cc2C1=O	45
C[C@H]1CN([C@@H](C)CO)C(=O)c2cc(NS(=O)(=O)c3ccc(F)cc3)ccc2O[C@@H]1CN(C)Cc1ccc(Oc2ccccc2)cc1	117*
O=C(CSc1ncn[nH]1)Nc1ccc(I)cc1	39
C[C@@H]1CN([C@@H](C)CO)C(=O)Cc2cc(N(C)C)ccc2O[C@@H]1CN(C)C(=O)Nc1cccc2ccccc12	7
O=C(Nc1cccc2ccccc12)c1ccccc1NS(=O)(=O)c1cccc2cccnc12	13
Cc1c(-c2ccccc2)[n+](=O)c(-c2ccc(Br)cc2)c(C)n1[O-]	-6
C[C@@H]1CN([C@H](C)CO)C(=O)c2cc(NC(=O)C3CCCCC3)ccc2O[C@@H]1CN(C)Cc1ccc(Oc2ccccc2)cc1	59
O=C(NCc1ccco1)C1CC(c2ccccc2O)=NO1 (configuration not stated)	19
O=C(O)CCCN1C(=O)c2cccc3cccc(c23)C1=O	-10
Cc1noc(C)c1NC(=O)N(C)C[C@@H]1Oc2ccc(NC(=O)NC(C)C)cc2C(=O)N([C@H](C)CO)C[C@@H]1C	3
CC1OC(Oc2ccc(-c3cc(=O)c4c(O)cc(OC5OC(CO)C(O)C(O)C5O)cc4o3)cc2)C(O)C(O)C1O (configuration not stated)	-8
CCn1c2ccccc2c2cc(CNCCc3ccc(Cl)cc3)ccc21	113*
Cn1c(SCC(=O)N2c3ccccc3CCc3ccccc32)nnc1-c1ccc(Cl)cc1Cl	27
COc1ccc(CN(C)C[C@@H]2Oc3ccc(NS(=O)(=O)c4cccs4)cc3CC(=O)N([C@H](C)CO)C[C@@H]2C)cc1	-13
Cc1noc(C)c1NC(=O)Nc1ccc2c(c1)CC(=O)N([C@@H](C)CO)C[C@H](C)[C@H](CN(C)Cc1ccc(-c3ccccc3)cc1)O2	99*
C[C@H](CO)N1C[C@H](C)[C@@H](CN(C)C)Oc2c(NC(=O)c3cnccn3)cccc2C1=O	1
O=C1c2cccc3cccc(c23)C(=O)N1NCCO	-16
C[C@H]1CN([C@@H](C)CO)C(=O)c2cc(NS(=O)(=O)c3ccc(F)cc3)ccc2O[C@H]1CN(C)S(C)(=O)=O	20

# Next section.
compound	NOMO-1 viab
C[C@@H]1CN([C@@H](C)CO)C(=O)c2cc(NC(=O)Nc3ccccc3)ccc2O[C@H]1CN(C)C	2
Cc1noc(C)c1NC(=O)Nc1ccc2c(c1)C(=O)N([C@H](C)CO)C[C@@H](C)[C@@H](CN(C)Cc1ccc(-c3ccccc3)cc1)O2	18
Cc1sc2nc(SCc3n[nH]c(=S)n3-c3ccccc3)nc(N)c2c1C	-21
CCOc1ccc2nc(NS(=O)(=O)c3ccc4c5c(cccc35)C(=O)N4)sc2c1	-7
C[C@@H]1CN([C@@H](C)CO)C(=O)c2cccc(NS(=O)(=O)c3cn(C)cn3)c2O[C@H]1CN(C)S(=O)(=O)c1cn(C)cn1	-16
COC(=O)c1cc(NC(=O)COc2ccccc2Cl)cc(C(=O)OC)c1	19
C[C@@H]1CN([C@H](C)CO)C(=O)Cc2cc(NC(=O)Nc3cccc4ccccc34)ccc2O[C@@H]1CN(C)Cc1ccc(-c2ccccc2)cc1	94*
Cc1nnc(SCc2ccon2)n1-c1ccccc1	2
C[C@@H]1CN([C@H](C)CO)C(=O)c2cc(NC(=O)NC3CCCCC3)ccc2O[C@@H]1CN(C)S(=O)(=O)c1ccc(Cl)cc1	34
C[C@@H]1CN([C@H](C)CO)C(=O)Cc2cc(NC(=O)CCCCCC(=O)Nc3ccccc3N)ccc2O[C@H]1CN(C)S(=O)(=O)c1cccs1	23
C[C@@H]1CCCCO[C@@H](CN(C)Cc2ccccc2)[C@@H](C)CN([C@H](C)CO)C(=O)c2cc(NS(C)(=O)=O)ccc2O1	20
NC[C@@H]1O[C@H](C23CC4CC(CC(C4)C2)C3)Cc2c1ccc(O)c2O	107*
C[C@H](CO)N1C[C@H](C)[C@H](CN(C)S(=O)(=O)c2ccc(F)cc2)Oc2ccc(N(C)C)cc2CC1=O	-6
O=C1NC(=O)C2(COC(c3ccccc3)OC2)S1 (configuration not stated)	25
CC(=O)C1=C(C)N(CC2CCCO2)C(=O)C1(NC(=O)c1ccc(C(C)(C)C)cc1)C(F)(F)F (configuration not stated)	-3
COc1ccc(NC(=O)N(C)C[C@H]2Oc3ccc(NS(=O)(=O)c4ccc(OC)cc4)cc3CC(=O)N([C@@H](C)CO)C[C@@H]2C)cc1	13
CC(C)NC(=O)Nc1cccc2c1O[C@@H](CN(C)C(=O)Nc1cccc3ccccc13)[C@@H](C)CN([C@H](C)CO)C2=O	14
C[C@H](CO)N1C[C@H](C)[C@@H](CN(C)S(=O)(=O)c2cn(C)cn2)Oc2c(NC(=O)c3ccc(-c4nccs4)cc3)cccc2C1=O	-8
C[C@@H]1CN([C@H](C)CO)C(=O)c2cccc(NC(=O)C3CCCCC3)c2O[C@H]1CN(C)C(=O)Nc1ccc(F)cc1	-5
CC(C)OC(=O)CSc1nc(-c2ccccc2)cc(C(F)(F)F)c1C#N	15
Cc1cc(=O)oc2cc(NC(=S)NCc3ccccn3)ccc12	9
Cc1noc(C)c1NC(=O)Nc1ccc2c(c1)C(=O)N([C@@H](C)CO)C[C@@H](C)[C@H](CN(C)Cc1ccc(Oc3ccccc3)cc1)O2	0
COc1ccc(CN(C)C[C@H]2Oc3c(NC(=O)NC(C)C)cccc3C(=O)N([C@@H](C)CO)C[C@@H]2C)cc1	-10
C[C@H]1CN([C@@H](C)CO)C(=O)Cc2cc(NC(=O)Nc3ccc4c(c3)OCO4)ccc2O[C@H]1CN(C)S(=O)(=O)c1ccc(Cl)cc1	127*
O=C(CSc1nc2ccc([N+](=O)[O-])cc2[nH]1)Nc1cc(C(F)(F)F)cc(C(F)(F)F)c1	130*

# 4 of the compounds above, as labelled records.
Cc1nnc(SCc2ccon2)n1-c1ccccc1
  NOMO-1 viab = 2

C[C@@H]1CN([C@H](C)CO)C(=O)c2cc(NC(=O)NC3CCCCC3)ccc2O[C@@H]1CN(C)S(=O)(=O)c1ccc(Cl)cc1
  NOMO-1 viab = 34

C[C@@H]1CN([C@H](C)CO)C(=O)Cc2cc(NC(=O)CCCCCC(=O)Nc3ccccc3N)ccc2O[C@H]1CN(C)S(=O)(=O)c1cccs1
  NOMO-1 viab = 23

C[C@@H]1CCCCO[C@@H](CN(C)Cc2ccccc2)[C@@H](C)CN([C@H](C)CO)C(=O)c2cc(NS(C)(=O)=O)ccc2O1
  NOMO-1 viab = 20

# Following part:
compound	NOMO-1 viab
O=C(NCCCN1CCCC1)Nc1ccccc1[N+](=O)[O-]	21
C[C@H](CO)N1C[C@H](C)[C@H](CN(C)C(=O)Nc2ccc3c(c2)OCO3)Oc2ccc(NC(=O)Nc3ccc(F)cc3)cc2CC1=O	11
O=C(Cn1cnc2ccccc2c1=O)Nc1ccc2c(c1)oc1ccccc12	25
CNC[C@H]1Oc2ccc(NC(=O)Nc3cccc4ccccc34)cc2C(=O)N([C@H](C)CO)C[C@@H]1C	-6
C[C@H]1CN([C@@H](C)CO)C(=O)c2cc(NS(=O)(=O)c3ccccc3)ccc2O[C@H]1CN(C)CC1CC1	-6
COc1ccc(NC(=O)CN(C)S(=O)(=O)c2ccc(Br)cc2)c([N+](=O)[O-])c1	-31
C[C@@H]1CN([C@H](C)CO)C(=O)c2cc(NC(=O)Cc3ccccc3)ccc2O[C@@H]1CN(C)S(C)(=O)=O	22
OCCNC(=S)NC12CC3CC(CC(C3)C1)C2	-11
C[C@@H]1CN([C@H](C)CO)C(=O)c2cc(NC(=O)CCCCCC(=O)Nc3ccccc3N)ccc2O[C@H]1CN(C)S(=O)(=O)c1cn(C)cn1	24
C[C@@H]1CN([C@@H](C)CO)C(=O)c2cc(NC(=O)Nc3ccccc3)ccc2O[C@@H]1CN(C)Cc1ccc(C(F)(F)F)cc1	97*
C[C@@H]1CN([C@H](C)CO)C(=O)Cc2cc(NS(=O)(=O)c3cn(C)cn3)ccc2O[C@@H]1CN(C)C(=O)NC1CCCCC1	-8
O=C(c1ccc(Cl)cc1)c1oc2ccccc2c1-c1cnn(-c2ccccc2)c1	40
Cc1ccc(NC(=O)CSc2nc(C)cc(C(F)(F)F)n2)cc1	19
Cc1cccc(C)c1Nc1nc2c(C)cc(C)c(C)c2s1	45
COc1cc(NS(=O)(=O)c2ccc(NC(=O)c3cccc4ccccc34)cc2)ncn1	1
C[C@@H]1CCCCO[C@H](CN(C)C(=O)CCC(F)(F)F)[C@@H](C)CN([C@H](C)CO)C(=O)c2cc(NS(C)(=O)=O)ccc2O1	-8
Cc1noc(C)c1S(=O)(=O)Nc1ccc2c(c1)C(=O)N([C@H](C)CO)C[C@@H](C)[C@H](CN(C)S(=O)(=O)c1cn(C)cn1)O2	5
C[C@@H]1CCCCO[C@@H](CN(C)S(=O)(=O)c2ccc(F)cc2)[C@@H](C)CN([C@H](C)CO)C(=O)c2cc(NS(=O)(=O)c3ccc(Cl)cc3)ccc2O1	112*
CC1CCC/C=C/C(=O)c2c(O)cc(O)cc2CC(=O)O1 (configuration not stated)	108*
C[C@H](CO)N1C[C@H](C)[C@H](CN(C)S(=O)(=O)c2ccccc2)Oc2c(cccc2N(C)C)C1=O	1
CN(CC(=O)Nc1ccccc1C#N)S(=O)(=O)c1ccc(Br)cc1	11
C[C@H](CO)N1C[C@H](C)[C@H](CN(C)C(=O)Nc2ccc3c(c2)OCO3)Oc2c(NS(=O)(=O)c3ccc(F)cc3)cccc2C1=O	16
Cc1noc(C)c1S(=O)(=O)Nc1cccc2c1O[C@@H](CN(C)C(=O)NC1CCCCC1)[C@@H](C)CN([C@H](C)CO)C2=O	22
C[C@H]1CN([C@@H](C)CO)C(=O)Cc2cc(NS(=O)(=O)c3cn(C)cn3)ccc2O[C@H]1CN(C)C(=O)Nc1ccccc1	19
COc1ccc([N+](=O)[O-])cc1NC(=O)C1(c2ccc(OC)c(OC)c2)CCCCC1	-5

# (list continues)
compound	NOMO-1 viab
CC1(C)Cc2c(sc3c2c(=O)n(Cc2ccccc2)c2nnc(SCC(=O)c4ccc(Br)cc4)n32)CO1	44
Cc1cc(=O)[nH]c(SCC(=O)N2CCC(C(N)=O)CC2)n1	-1
O=C(CCN1C(=O)c2ccccc2S1(=O)=O)Nc1ccc(Oc2ccccc2)cc1	6
COc1ccc(S(=O)(=O)N(C)C[C@H]2Oc3ccc(NC(=O)NC4CCCCC4)cc3CC(=O)N([C@@H](C)CO)C[C@@H]2C)cc1	12
Cc1ccc(NC(=O)CC2NCCNC2=O)cc1 (configuration not stated)	5
CC1(C)CC(=O)C2=C(C1)NCN(Cc1ccc3c(c1)OCO3)C2	14
COc1ccc(S(=O)(=O)N(C)C[C@H]2Oc3ccc(NC(=O)C4CC4)cc3CC(=O)N([C@@H](C)CO)C[C@@H]2C)cc1	5
CCN(CC(=O)Nc1ccc(C(N)=O)cc1)S(=O)(=O)c1ccc(Br)cc1	5
O=C(O)c1cc2cc(Cl)ccc2oc1=O	7
COc1ccc(NC(=O)Nc2cccc3c2O[C@@H](CN(C)Cc2ccc(C(F)(F)F)cc2)[C@H](C)CN([C@H](C)CO)C3=O)cc1	84*
COc1ccc(CN(C)C[C@@H]2Oc3ccc(NS(=O)(=O)c4cccs4)cc3CC(=O)N([C@@H](C)CO)C[C@@H]2C)cc1	4
CNC[C@@H]1Oc2ccc(NS(C)(=O)=O)cc2CC(=O)N([C@H](C)CO)C[C@@H]1C	11
C[C@@H]1CN([C@H](C)CO)C(=O)c2cccc(NC(=O)Nc3cccc4ccccc34)c2O[C@H]1CN(C)C(=O)NC1CCCCC1	?
C[C@@H]1CN([C@H](C)CO)C(=O)c2cc(NC(=O)Nc3cccc4ccccc34)ccc2O[C@H]1CN(C)C(=O)NC1CCCCC1	-4
Cc1noc(C)c1S(=O)(=O)N(C)C[C@H]1Oc2ccc(NC(=O)Cc3ccccc3)cc2CC(=O)N([C@H](C)CO)C[C@H]1C	11
Cc1ccc(C(C)C)c(OCC(=O)Nc2cccc3nsnc23)c1	14
Cc1ccc(S(=O)(=O)NC(C)C(=O)Nc2ccc3c(c2)OCCO3)cc1 (configuration not stated)	-9
CCOC(=O)c1cc(NC(=O)CN2C(=O)COc3ccc(Cl)cc32)ccc1Cl	20
CC(=O)Nc1ccccc1NC(=O)COc1ccc(C(C)(C)C)cc1Br	46

# Only part of the results is shown; count on the stated rates, not on these rows.
